rRNA inh HTS: selective bacterial rRNA inhibition in E. coli | E. coli WT GFP vs humanized-ribosome RFP mutants, fluorescence, 24 h; active compounds read low; DMSO median 0, no signal -100 | GFP signal change (wild-type ribosome), % (test concentration not listed) | 350,000 tested, 1.6% active | AID 720706;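 active = significant combined selectivity score with lowered wild-type GFP, culture density cut under 30%, mutant RFP and density less affected; inactive = any of these conditions unmet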; also: one replicate is shown; some compounds called inactive have numbers as strong as hits
AF4-AF9 inh: MLL-AF4/AF9 protein interaction inhibition. P42568. AlphaScreen, biotin-AF4 peptide binding to FLAG-AF9. inhibition, % at 10 µM. 350,000 tested, 0.47% active. AID 651704;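 active = every replicate reaching a set inhibition limit, whatever the replicate mean, cut at about 25% in these data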;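 also: 0% = plate neutral control median and 100% = total signal loss; the record names both 10 and 1 µM as test concentration; the first replicate is given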
Target sequence (P42568 whole entry, looked up): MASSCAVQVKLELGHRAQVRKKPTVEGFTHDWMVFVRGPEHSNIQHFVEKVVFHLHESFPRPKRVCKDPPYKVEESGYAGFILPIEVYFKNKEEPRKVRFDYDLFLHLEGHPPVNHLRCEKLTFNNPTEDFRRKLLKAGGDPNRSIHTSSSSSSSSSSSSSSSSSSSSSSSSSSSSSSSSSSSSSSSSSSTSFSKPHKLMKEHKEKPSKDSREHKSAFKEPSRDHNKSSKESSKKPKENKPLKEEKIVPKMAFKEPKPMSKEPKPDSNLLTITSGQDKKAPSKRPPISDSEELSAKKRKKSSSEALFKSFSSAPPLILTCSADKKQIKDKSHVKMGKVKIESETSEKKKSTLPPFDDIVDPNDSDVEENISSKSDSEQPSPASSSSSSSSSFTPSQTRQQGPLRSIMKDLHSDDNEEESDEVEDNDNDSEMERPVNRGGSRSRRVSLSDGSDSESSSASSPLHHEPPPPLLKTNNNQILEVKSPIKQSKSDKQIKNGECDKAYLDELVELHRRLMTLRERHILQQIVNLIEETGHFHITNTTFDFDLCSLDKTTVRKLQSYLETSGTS
FGF22 binding: shifts melting point of recombinant human FGF22; Q9HCT0; AID 651658; recombinant FGF22 thermal shift, SYPRO orange fluorescence; percent of sucrose octasulfate shift, DMSO zero; calls only at 9.99 µM; 340,000 tested, 1.5% active;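 active = melting point raised past a set limit in the mean and every replicate; three in four hits are not shown here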
Target sequence (Q9HCT0 whole entry, looked up): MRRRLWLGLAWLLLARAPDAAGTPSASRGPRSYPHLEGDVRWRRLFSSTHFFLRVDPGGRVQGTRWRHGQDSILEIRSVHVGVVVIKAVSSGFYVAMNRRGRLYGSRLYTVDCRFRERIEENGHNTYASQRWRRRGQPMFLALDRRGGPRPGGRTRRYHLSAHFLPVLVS
rRNA inh HTS OD600: also measured in rRNA inh HTS; calls as there; OD600 change, %; measured here: OD600 growth;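 optical density of the mix in the first replicate; 0 = DMSO median and -100 = no signal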
rRNA inh HTS RFP: further read-out of rRNA inh HTS, marked with its call; RFP signal change, %; measured here: RFP humanized mutant strains;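 first replicate; 0 = DMSO median and -100 = no signal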
Active calls of the source: *; i = inactive; & = joins results of further samples. The list is partial (hit frequency here may not be typical).

SMILES	rRNA inh HTS	rRNA inh HTS OD600	rRNA inh HTS RFP	AF4-AF9 inh	FGF22 binding
COc1ccc(NC(=O)Nc2ccc3c(c2)CC(=O)N([C@H](C)CO)C[C@H](C)[C@@H](CN(C)S(=O)(=O)c2ccc(OC)cc2)O3)cc1	-3	5	-0.9	4.3	i
CN1[C@@H]2c3ccc(-c4ccncc4)c(=O)n3C[C@@H]2[C@@H](CO)[C@@H]1C(=O)N1CCc2ccccc2C1	4	7	-0.4	-1.6	i
C[C@@H]1CN([C@H](C)CO)S(=O)(=O)c2ccc(C#CC3CCCC3)cc2O[C@H]1CN(C)C(=O)Cc1ccncc1	0	-23	13	7.1	i
COCC(=O)N1CCCCN2[C@H](C1)[C@H](c1ccc(C#Cc3ccc(OC)cc3)cc1)[C@@H]2CO	-28	-61	23	3.5	i
Cc1cc(C(=O)Nc2cccc3c2O[C@@H](CN(C)S(=O)(=O)c2ccc(Cl)cc2)[C@H](C)CN([C@@H](C)CO)C3=O)n(C)n1	2	-1	-2.3	0.0	i
C[C@H](CO)N1C[C@H](C)[C@H](CN(C)C(=O)Nc2ccccc2)Oc2ccc(NC(=O)c3ccncc3)cc2C1=O	2	8	0.0	-3.7	i
CC(C)c1cn(CC[C@@H]2CC[C@@H](NC(=O)C3CC3)[C@@H](CO)O2)nn1	2	0	-0.5	-0.2	i
C[C@@H]1CCCCO[C@H](CN(C)Cc2ccncc2)[C@H](C)CN([C@H](C)CO)C(=O)c2cc(NS(=O)(=O)c3ccc(Cl)cc3)ccc2O1	-8	-20	3.8	5.1	i
COc1ccc(S(=O)(=O)Nc2ccc3c(c2)C(=O)N([C@H](C)CO)C[C@H](C)[C@@H](CN(C)C(=O)CCCN(C)C)OCCCC[C@H](C)O3)cc1	0	0	-1.3	-0.3	i
COc1ccc(S(=O)(=O)N(C)C[C@@H]2Oc3c(NC(=O)C4CC4)cccc3C(=O)N([C@H](C)CO)C[C@H]2C)cc1	0	7	1.1	0.8	i
COc1ccc(NC(=O)N(C)C[C@H]2Oc3ccc(NS(=O)(=O)c4c(C)noc4C)cc3CC(=O)N([C@@H](C)CO)C[C@@H]2C)cc1	-2	-1	-2.9	0.1	i
COCC(=O)Nc1ccc2c(c1)[C@H]1C[C@@H](CC(=O)NCc3ccc(OC)cc3)O[C@H](CO)[C@H]1O2	1	2	2.3	0.4	i
C/C=C/c1ccccc1[C@H]1[C@@H](CO)N(C(=O)CN2CCOCC2)[C@H]1C#N	4	12	-0.9	-1.1	i
CC(C)NC(=O)Nc1ccc2c(c1)CC(=O)N([C@@H](C)CO)C[C@@H](C)[C@@H](CN(C)C(=O)Nc1ccc(F)cc1)O2	3	2	-0.7	-9.7	i
NC(=O)c1ccc(NC(=O)COC(=O)c2ccccc2SCC(=O)N2CCCC2)cc1	2	3	2.3	-1.8	i
COCCNC(=O)C[C@H]1C[C@H]2c3cc(NC(=O)C4CCOCC4)ccc3O[C@H]2[C@H](CO)O1	3	1	-1.4	2.2	i
NC(Cc1ccc(C(F)(F)F)cc1)c1csc(Nc2ncccn2)n1 (centres undefined)	-62	-79	-20	0.9	i
CN(C)C(=O)c1cccc(-c2ccc([C@H]3[C@H]4CN(Cc5cccnc5)CCCCN4[C@H]3CO)cc2)c1	6	3	-1.1	12	i
O=C(C[C@H]1C[C@@H]2c3cc(NC(=O)C4CCC4)ccc3O[C@@H]2[C@H](CO)O1)NCc1cc(F)ccc1F	-2	1	-3.2	-3.7	i
COc1ccccc1-c1ccc2c(c1)O[C@@H](CN(C)C)[C@H](C)CN([C@@H](C)CO)S2(=O)=O	-1	-1	-2.8	-0.4	i
COc1ccc(S(=O)(=O)Nc2ccc3c(c2)C(=O)N([C@@H](C)CO)C[C@@H](C)[C@@H](CN(C)S(=O)(=O)c2c(C)noc2C)O3)cc1	1	6	3.0	3.4	i
COc1cc(N(C)C)ccc1[C@]1(O)C(=O)N(C)c2ccc(Br)cc21	-8	-7	4.9	7.4	i
C[C@@H]1CN([C@@H](C)CO)C(=O)Cc2cc(NS(=O)(=O)c3ccc(Cl)cc3)ccc2O[C@@H]1CN(C)S(=O)(=O)c1cn(C)cn1	3	1	0.3	-2.5	i
C[C@@H]1CN([C@H](C)CO)C(=O)c2cc(NC(=O)C3CCCCC3)ccc2O[C@@H](C)CCCCO[C@@H]1CN(C)C(=O)c1ccccc1	0	-5	1.9	-0.1	i
O=C([C@@H]1[C@@H](CO)[C@@H]2Cn3c(cccc3=O)[C@H]1N2)N1CCc2ccccc2C1	0	2	-0.9	-0.7	i
COc1ccc2nc(C(c3ccc(C)cc3)n3c(-c4ccccc4Br)nc4ccccc43)[nH]c2c1 (centres undefined)	-20	-24	-4.9	-0.3	i
C[C@@H]1CN([C@H](C)CO)C(=O)Cc2cc(NS(C)(=O)=O)ccc2O[C@@H]1CN(C)S(C)(=O)=O	-2	4	-1.7	-2.9	i
COc1ccc(-c2cn(CC[C@H]3CC[C@@H](N)[C@H](CO)O3)nn2)cc1	1	1	-0.4	1.9	i
C[C@H]1CN([C@@H](C)CO)C(=O)c2cccc(NS(C)(=O)=O)c2O[C@@H]1CN(C)S(=O)(=O)c1ccccc1	-1	2	-0.2	0.2	i
C[C@H](CO)N1C[C@H](C)[C@@H](CN(C)Cc2ccccc2)Oc2ccc(NS(=O)(=O)c3ccccc3)cc2C1=O	2	-1	2.0	-4.1	i
C[C@@H]1CN([C@H](C)CO)C(=O)c2c(c3ccccc3n2C)-c2ccccc2CO[C@H]1CN(C)C(=O)[C@H](Cc1ccccc1)N(C)C	-2	-7	-1.2	7.1	i
C[C@H]1CN([C@@H](C)CO)C(=O)c2cc(-c3ccc(C#N)cc3)cnc2O[C@@H]1CN(C)Cc1cncnc1	-2	8	-0.5	0.5	i
CC1(Cc2ccc(F)c(Cl)c2)C(=O)Nc2c(Cl)cccc21 (centres undefined)	-53	-77	-16	-0.5	i
CC(C)CC#Cc1cnc2c(c1)C(=O)N([C@@H](C)CO)C[C@@H](C)[C@H](CN(C)Cc1ccccn1)O2	1	0	2.2	0.5	i
COc1ccc2c3c(n(C)c2c1)[C@@H](CO)N(C(=O)Cc1ccccn1)CC31CCN(Cc2ccccn2)CC1	0	16	-3.0	-2.5	i
C[C@@H]1CN([C@H](C)CO)C(=O)c2cc(C#CC3CC3)cnc2O[C@@H]1CN(C)C(=O)Cc1ccccn1	3	11	-1.1	-2.1	i
CCNC(=O)[C@@H]1[C@@H](CO)[C@@H]2Cn3c(ccc(-c4cccnc4)c3=O)[C@@H]2N1Cc1ccccc1	0	12	0.1	0.6	i
CS(=O)(=O)N1[C@H](C#N)[C@H](c2ccccc2)[C@@H]1CO	4	15	-2.0	0.2	i
COc1ccc(CN(C)C[C@H]2Oc3ccc(NC(=O)NC(C)C)cc3CC(=O)N([C@@H](C)CO)C[C@H]2C)cc1	4	-4	-0.6	-2.9	i
COCCN(C(=O)COC(=O)Cc1ccc(Cl)cc1)c1c(N)n(Cc2ccccc2)c(=O)[nH]c1=O	1	5	0.4	1.7	i
CN(C)C(=O)C[C@H]1C[C@@H]2c3cc(NC(=O)C4CCOCC4)ccc3O[C@@H]2[C@H](CO)O1	2	8	-3.7	-3.4	i
COC(=O)C[C@@H]1C[C@H]2c3cc(NS(=O)(=O)c4ccc(F)cc4)ccc3O[C@H]2[C@H](CO)O1	1	3	4.5	1.1	i
O=S1(=O)CCC(N(N=Cc2ccco2)c2ccccc2)C1 (centres undefined)	4	11	0.9	-0.9	i
CC(C)(C)c1cc(NC(=O)C2(C)CCN2C(=O)C2(c3ccccc3)CC2)no1 (centres undefined)	4	-34	-2.6	-4.7	i
C[C@@H]1CN([C@H](C)CO)C(=O)c2ccccc2-c2ccccc2CO[C@@H]1CN(C)Cc1cccc(C(=O)O)c1	3	3	-0.3	-6.1	i
CCN1[C@H](C(=O)NCc2ccccc2)[C@@H](CO)[C@@H]2Cn3c(ccc(-c4ccncc4)c3=O)[C@@H]21	1	3	-1.5	-0.7	i
CCOC(=O)c1c(C)nc(C)c(C(=O)OCC)c1-c1cccc([N+](=O)[O-])c1	-11	-9	1.5	-1.0	i
COCC(=O)N1C[C@@H](C)[C@H](OC)CN(C)C(=O)c2cc(NC(=O)c3ccc(-c4ccccc4)cc3)ccc2OC[C@H]1C	-3	-9	5.5	2.5	i

Profiles, quoted from the list:
Entry for C[C@H](CO)N1C[C@H](C)[C@@H](CN(C)Cc2ccccc2)Oc2ccc(NS(=O)(=O)c3ccccc3)cc2C1=O : rRNA inh HTS: 2; rRNA inh HTS OD600: -1; rRNA inh HTS RFP: 2.0; AF4-AF9 inh: -4.1; FGF22 binding: i
Entry for COc1cc(N(C)C)ccc1[C@]1(O)C(=O)N(C)c2ccc(Br)cc21 : rRNA inh HTS: -8; rRNA inh HTS OD600: -7; rRNA inh HTS RFP: 4.9; AF4-AF9 inh: 7.4; FGF22 binding: i

Back to the main list with the 4 entries that preceded the break.
SMILES	rRNA inh HTS	rRNA inh HTS OD600	rRNA inh HTS RFP	AF4-AF9 inh	FGF22 binding
C[C@@H]1CN([C@H](C)CO)C(=O)c2ccccc2-c2ccccc2CO[C@@H]1CN(C)Cc1cccc(C(=O)O)c1	3	3	-0.3	-6.1	i
CCN1[C@H](C(=O)NCc2ccccc2)[C@@H](CO)[C@@H]2Cn3c(ccc(-c4ccncc4)c3=O)[C@@H]21	1	3	-1.5	-0.7	i
CCOC(=O)c1c(C)nc(C)c(C(=O)OCC)c1-c1cccc([N+](=O)[O-])c1	-11	-9	1.5	-1.0	i
COCC(=O)N1C[C@@H](C)[C@H](OC)CN(C)C(=O)c2cc(NC(=O)c3ccc(-c4ccccc4)cc3)ccc2OC[C@H]1C	-3	-9	5.5	2.5	i
O=C(C[C@H]1CC[C@H]2[C@@H](COC[C@H](O)CN2C(=O)c2ccc(F)cc2)O1)N1CCOCC1	5	3	31	-1.9	i
CO[C@H]1CN(C)C(=O)c2cc(NC(=O)C3CCOCC3)ccc2OC[C@H](C)NC[C@H]1C	2	4	0.9	-0.4	i
CN(Cc1ccccc1)C(=O)c1[nH]cnc1C(=O)Nc1ccccc1F	11	5	-1.4	-1.8	i
CC(=O)Nc1ccc(CN2C(=O)C(C)(C)ON=C2c2ccc(C(F)(F)F)cc2)cc1	2	-5	0.0	-0.1	i
N#C[C@H]1[C@@H](c2ccc(C#Cc3ccc(F)cc3)cc2)[C@H](CO)N1C(=O)Nc1ccc(F)cc1	-10	-27	3.2	-1.0	i
Cc1cc(C(=O)Nc2cccc3c2O[C@H](CN(C)C)[C@@H](C)CN([C@H](C)CO)C3=O)n(C)n1	-3	4	-1.4	-1.8	i
C[C@H]1CN([C@@H](C)CO)C(=O)c2cccc(NC(=O)Nc3ccc(F)cc3)c2O[C@H]1CN(C)Cc1ccc(-c2ccccc2)cc1	-4	-15	2.4	2.4	i
C[C@@H]1CN([C@H](C)CO)C(=O)c2cccc(NC(=O)c3nc4ccccc4s3)c2O[C@H]1CN(C)Cc1ccc(Cl)c(Cl)c1	-2	-4	1.9	4.7	i
C[C@@H]1CCCCO[C@@H](CN(C)C(=O)Cc2ccccc2)[C@@H](C)CN([C@H](C)CO)C(=O)c2cc(NC(=O)Nc3cccc4ccccc34)ccc2O1	2	-5	1.6	-1.3	i
COc1ccc(S(=O)(=O)N(C)C[C@H]2Oc3ccc(NC(=O)Cc4ccccc4)cc3CC(=O)N([C@@H](C)CO)C[C@@H]2C)cc1	2	-3	0.0	-1.4	i
COc1ccc(Cl)cc1CC1(C)C(=O)Nc2c(Cl)cccc21 (centres undefined)	-59	-76	-21	-0.5	i
C[C@H]1CCCCO[C@@H](CN(C)C(=O)C2CCCCC2)[C@@H](C)CN([C@@H](C)CO)C(=O)c2cc(NC(=O)c3ccncc3)ccc2O1	-2	-3	0.9	6.8	i
CCCNC(=O)N(C)C[C@H]1Oc2cc(-c3cncnc3)ccc2S(=O)(=O)N([C@H](C)CO)C[C@H]1C	1	0	-2.2	1.2	i
O=C(NCC1CCCO1)c1ccc2c(c1)N(Cc1ccc(Cl)cc1)CCS2 (centres undefined)	-32	-54	-2.3	2.6	i
C[C@@H]1CN([C@@H](C)CO)C(=O)c2cc(Br)cnc2O[C@H]1CN(C)C(=O)c1cccc(F)c1	4&1	1&-4	4.5&-6.6	-0.6&-3.1	i
O=C(NCC[C@@H]1CC[C@@H](NC(=O)c2cccnc2)[C@H](CO)O1)Nc1ccc(C(F)(F)F)cc1	-2&-62	-5&-79	-1.5&-17	26*	i
COCC#Cc1cnc2c(c1)C(=O)N([C@H](C)CO)C[C@H](C)[C@H](CN(C)Cc1ccccc1)O2	10	18	-4.3	0.8	i
CO[C@@H]1CN(C)C(=O)c2ccc(NC(=O)c3ccc(F)cc3)cc2OC[C@H](C)N(C(C)=O)C[C@H]1C	1	0	-3.0	1.8	i
C[C@@H]1CN([C@H](C)CO)C(=O)c2cc(NC(=O)Nc3ccc(C(F)(F)F)cc3)ccc2O[C@@H](C)CCCCO[C@H]1CN(C)C(=O)NC1CCCCC1	1	3	2.0	-0.8	i

From PubChem
